A1 inh = inhibitors of the anti-apoptotic protein A1, read as caspase activation | AID 2462 | MEF A1-2A-BIM cells, Caspase-Glo 3/7 luminescence, 3 h; percent of clofoctol response, vehicle zero | actives 0.066% (n = 330,000) | caspase activation, % (test concentration not listed);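 active = over half of replicate activation scores above 10%, or exactly half above 10 with the replicate mean above 10; inconclusive = replicate mean below 10 yet half the replicates above 10; inactive = over half of replicates below 10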;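 note: wells of about 30 µL received 50 nL stock; many hits fall short of the cut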
E coli growth = inhibitors of Escherichia coli growth; OD600, 23 h; hits give low values; OD600 absorbance (concentration not given with the values); actives 0.21% (n = 330,000); AID 1053175;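 active = OD600 absorbance below the run mean of sample wells minus 3.6 SD, in any replicate, cut at about 0.56 in these data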;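 note: stock transfer was 300 nL into about 60 µL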
Beta2AR agonist = human beta-2 adrenergic receptor agonism by FAP; P07550; Am2.2-beta2AR cells, FAP receptor internalization, flow cytometry; reference of the scale not given here; response, % (test concentration not listed); actives 0.43% (n = 340,000); AID 504454;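 active = response above a set limit, near 3 SD of response in nonfluorescent compounds, cut at about 42% in these data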;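 note: stock transfer was 100 nL into about 11 µL; a reference agonist was the positive control; negative values mostly stem from fluorescent compounds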
Target sequence (P07550 whole entry, looked up): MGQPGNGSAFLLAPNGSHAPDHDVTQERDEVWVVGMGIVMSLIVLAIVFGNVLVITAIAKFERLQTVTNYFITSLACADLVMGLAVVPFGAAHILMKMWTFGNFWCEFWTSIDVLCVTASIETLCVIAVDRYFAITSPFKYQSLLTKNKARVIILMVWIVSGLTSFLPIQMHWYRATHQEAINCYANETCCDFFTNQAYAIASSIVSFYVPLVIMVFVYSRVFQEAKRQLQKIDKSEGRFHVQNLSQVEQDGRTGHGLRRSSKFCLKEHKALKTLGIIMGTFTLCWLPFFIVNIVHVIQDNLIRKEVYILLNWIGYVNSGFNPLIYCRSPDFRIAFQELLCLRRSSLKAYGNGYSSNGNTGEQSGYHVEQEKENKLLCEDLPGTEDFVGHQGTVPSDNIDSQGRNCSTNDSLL
LANA-H2B inh = blocks KSHV LANA binding to histone H2A/H2B. cell-free LANA-H2A/H2B peptide, fluorescence polarization. actives 0.6% (n = 320,000). inhibition, % (concentration not given with the values); in the data active = inhibition mostly above about 10%, no sharp cut-off; inactive = mostly below about 6.7%;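 note: stock transfer was 7.5 nL into about 10 µL; 0% = median of vehicle wells and 100% = median of positive control wells; one replicate is shown; the record names a cut of 25% in any replicate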
HNF4A DNA FP = change in binding of human HNF4 alpha to DNA; P41235; AID 1224865; HNF4a-FITC DNA binding, fluorescence polarization, 1 h; activity change, % at 10 µM; actives 0.3% (n = 360,000); in the data active = activity change above about 30%, passing the limit was not always enough;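 note: controls were the assay level and a saturating level of protein; the project sought stronger binding though the title names inhibitors; some compounds called inactive have numbers as strong as hits; positive values seem to mean higher polarization but the record does not say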
Target sequence (P41235 whole entry, looked up): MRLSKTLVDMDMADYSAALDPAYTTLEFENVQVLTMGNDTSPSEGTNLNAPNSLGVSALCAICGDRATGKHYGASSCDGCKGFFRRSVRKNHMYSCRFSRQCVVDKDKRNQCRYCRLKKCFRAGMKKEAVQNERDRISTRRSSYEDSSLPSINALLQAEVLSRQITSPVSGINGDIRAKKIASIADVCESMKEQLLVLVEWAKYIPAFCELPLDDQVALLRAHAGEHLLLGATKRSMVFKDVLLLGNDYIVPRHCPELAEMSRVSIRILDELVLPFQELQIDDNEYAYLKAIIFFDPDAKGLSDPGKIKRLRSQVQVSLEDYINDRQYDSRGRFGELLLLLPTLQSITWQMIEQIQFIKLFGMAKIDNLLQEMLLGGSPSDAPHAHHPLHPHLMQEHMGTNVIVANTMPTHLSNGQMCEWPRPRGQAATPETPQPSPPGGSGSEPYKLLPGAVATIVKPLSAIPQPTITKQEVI
UCH37 inh = inhibitors of human deubiquitinating enzyme UCH37; Q9Y5K5; purified proteasome/UCH37, Ub-AMC cleavage fluorescence; inhibition, % (no concentration beside the values); actives 0.33% (n = 330,000);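 active = mean of two replicates above 20%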;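 note: 0% = compound-free wells with enzyme and 100% = wells lacking proteasome; stock transfer was 100 nL into about 20 µL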
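system = Proteasome-associated human UCH37 deubiquitinase | amount = 0.15 nM proteasome as dispensed | medium = pH 7.4 Tris-HCl (50 mM) with ovalbumin, ATP-MgCl2, DTT | incubation = 30 min preincubation with enzyme, 25 min cleavage at room temperature | detection = AMC fluorescence 355/460 nm | read-out basis = percent inhibition | controls = no-proteasome and no-compound wells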
Vif TR-FRET = HIV-1 Vif–A3G interaction blockers – biochemical, TR-FRET, GST-Vif 1-94, biotin-A3G peptide, dose response retest, primary screen (AID 1117319); TR-FRET GST-Vif / biotin-A3G peptide binding; higher % means a stronger effect; test concentration not given here; strong numbers were not always called active; one-dose inhibition, %; IC50 in µM for titrated hits; actives 0.57% (n = 260,000);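 active = above the screen mean plus three standard deviations and confirmed in dose response; inconclusive = results disagree or hit not tested in dose response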;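 note: Vif residues 1-94 fused to GST binding biotinylated APOBEC3G peptide 110-148; 0% = full assay without inhibitor and 100% = GST in place of GST-Vif; retest series ran down from 100 µM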
* = called active by the depositor; i = inactive; ? = inconclusive; . = not tested or not shown. Random draw from the library; 2.1% or so of the library scored in one or more.

Results follow in this order: A1 inh, E coli growth, Beta2AR agonist, LANA-H2B inh, HNF4A DNA FP, UCH37 inh, Vif TR-FRET
C[n+]1cccc(/C=N/NC(=O)CC23CC4CC(CC(C4)C2)C3)c1
    -0.8, ., -15, 0.0, 1.6, ., 12%
Cc1ccc(C2CC(=O)C(C=NCCN3CCN(C(=S)Nc4ccc(F)cc4)CC3)=C(O)C2)cc1 (stereo not drawn)
    0.4, 0.68, 2, -9.7, 3.0, 4.6, 0%
O=C(CSC1CCCCC1)Nc1ccccc1Br
    0.5, 0.72, 1, 1.9, 0.4, 2.3, .
CCc1nnc(NC(=O)CN2CCN(S(C)(=O)=O)CC2)s1
    -0.2, 0.69, -1, 5.3, -4.2, -1.1, .
O=C1CNC(=O)/C1=C/c1ccc(O)cc1
    -0.1, 0.69, 6, 4.1, 2.3, 2.8, 5%
O=C(CSc1nnc(NC(=O)c2ccccc2)s1)NCC1CCCO1 (stereo not drawn)
    -3.7, 0.66, -3, -4.1, -0.3, 5.4, -3%
Nc1nc(SCCO)[nH]c(=O)c1NC(=O)c1ccc(Br)o1
    0.6, ., -1, -1.6, 2.3, ., .
COc1cccc(C(C(=O)NC2CCCC2)N(C(=O)CNC(=O)c2ccco2)c2cccnc2)c1 (stereo not drawn)
    0.6, 0.59, -2, 0.7, -1.0, -0.4, .
O=C1OC2CC3CC1CC(O)(C3)C2 (stereo not drawn)
    1.4, 0.66, -6, 2.3, 2.0, 1.1, ?
CCc1c(C)c(C#N)c2nc3ccccc3n2c1N(C)C
    0.2, 0.78, -1, 1.7, -0.6, -12, 20%
Cc1ccc(C(=O)NCCN2C3=NC[C@H](C(C)C)N3C[C@H]2Cc2ccc(O)cc2)cc1Br
    1.3, ., 30, -2.1, -4.0, 4.6, -11%
COc1cccc(/C=C/C(=O)OCC(=O)NCc2ccc3c(c2)OCO3)c1
    -2.7, 0.73, 3, -2.4, 5.0, -6.9, .
CC(C)NC(=O)CSc1nnc(-c2ccncc2)n1-c1ccccc1
    -0.3, 0.65, -17, 0.2, 3.0, -1.1, -5%
CC1(C2CC2)NC(=O)N(CC(=O)Nc2ccccc2F)C1=O (stereo not drawn)
    ., 0.67, 0, ., -2.6, 0.5, 0%
O=C(N/N=C/c1ccccc1C(=O)O)c1ccc(COc2cccc3cccnc23)cc1
    -0.5, ., -8, 3.0, 0.4, ., 12%
COc1ccc(NC(=O)c2ccc(COc3ccccc3Br)o2)cc1OC
    1.3, 0.78, 13, -1.7, 2.5, -2.7, -2%
Nc1cc(S(=O)(=O)N2CCCCC2)ccc1Oc1ccc(Cl)cc1
    1.0, 0.63, -9, 0.3, -0.7, 0.0, 17%
CC(C)(C)C(=O)N1CCN(c2ccc(Cl)cc2[N+](=O)[O-])CC1
    0.5, 0.68, 5, 4.6, 1.7, 2.2, .
Cc1nc2cc(NCc3nc4ccccc4n3Cc3ccccc3)ccc2n1C
    1.4, 0.7, -4, -4.3, -1.1, 1.8, 10%
COC(=O)c1cscc1NC(C)=O
    0.0, 0.8, -7, 0.9, 3.5, 2.8, 2%
CC[C@@]1(c2ccccc2OC)ON(c2ccccc2C(F)(F)F)C1=O
    0.4, ., 21, -1.8, -4.5, 0.6, .
O=C(Nc1ccc2cn[nH]c2c1)c1ccc(Cl)c(S(=O)(=O)N2CCOCC2)c1
    2.2, 0.71, 9, -1.0, -2.4, 3.0, -37%
O=C(NCc1ccccc1)C1CCN(S(=O)(=O)c2ccc(N3CCCC3=O)cc2)CC1
    0.9, 0.63, -11, -7.9, -2.4, 2.7, 6%
C[C@H](N)c1nnc(SCC(=O)N(C)C)o1
    0.0, 0.68, 2, -2.2, -0.4, 2.7, -8%
CCCc1ncc(C(O)c2ccccc2OC)n1C (stereo not drawn)
    -0.3, 0.71, -8, 6.4, -0.2, 3.9, 4%
CCC(=O)N1CCc2cc(Br)cc(S(=O)(=O)N3CCC(C(=O)NC(C)C)CC3)c21
    0.2, 0.73, -3, 3.0, -0.9, 1.9, .
O=S(=O)(c1ccc2ccccc2c1)N1CCOCC1
    1.7, 0.64, 0, 1.8, -1.0, 3.2, .
CCn1c(=O)c2cc(S(=O)(=O)NCc3ccccc3)ccc2n(CC)c1=O
    -1.0, 0.72, 10, -3.4, 2.7, -2.9, 12%
COc1ccc(NC(=O)N2CCC(c3ccccc3)C2)c(OC)c1 (stereo not drawn)
    1.0, 0.66, -5, -1.6, 4.1, 3.7, -1%
S=C(Nc1ccc(Cl)cc1)Nc1cccc2cnccc12
    -0.1, 0.6, -1, 4.4, 3.9, -1.2, 4%
O=C(c1cc(-c2ccc(Cl)c(Cl)c2)on1)N1CCN(c2ccccc2)CC1
    -0.1, 0.69, 5, 2.0, 2.1, 1.1, 2%
CCOC(=O)c1c(C)c(-c2ccccc2)n(CC(=O)N2CCCC2)c1C
    0.8, 0.75, -3, -2.7, -0.3, 1.2, 0%
COc1ccc(C2/C(=C(\O)c3ccc4c(c3)OCCO4)C(=O)C(=O)N2CCCn2ccnc2)cc1 (stereo not drawn)
    -0.6, 0.67, -7, 0.0, 4.6, 13, -13%
COc1ccc(CC2(CO)CCN(CC3=Cc4cc(Cl)ccc4OC3)CC2)cc1
    -0.6, 0.67, 7, 7.3, -2.4, -0.8, .
NC1=NC(=O)/C(=C\C=C\c2ccccc2)S1
    -2.4, 0.64, -6, 0.0, -1.3, 0.5, .
COC(=O)NC(NS(=O)(=O)c1ccccc1)(C(=O)OC)C(F)(F)F (stereo not drawn)
    -0.4, 0.69, 4, 4.2, 4.0, 1.3, 13%
COc1cc(C(=O)N(C)C2CCCCC2)ccc1OC1CCN(C(C)=O)CC1
    2.9, 0.72, -6, 0.8, -0.6, 1.7, .
O=C(CCc1ccccc1)Nc1ccc(N2CCOCC2)c(Cl)c1
    -0.1, 0.67, -2, -3.2, 4.7, 4.8, -1%
Cc1ccccc1NC(=O)C1=CC=CN2CCS(=O)(=O)N=C12
    ., 0.63, -1, ., -1.9, 4.8, -7%
Cn1ccnc1SCC(=O)Nc1ccc([N+](=O)[O-])cn1
    ., 0.69, 7, ., -0.9, 8.4, .
COc1ccccc1NS(=O)(=O)c1ccc(C)c(C(=O)NC2=NCCS2)c1
    0.3, 0.71, -2, -1.6, 4.2, 2.0, .
NS(=O)(=O)c1ccc(N2N=C(c3ccccc3)CC2c2ccccc2)cc1 (stereo not drawn)
    -0.3, 0.67, -2, 2.5, 1.6, i, .
CC(CCc1ccccc1)NC(=O)COC(=O)c1ccc(F)cc1 (stereo not drawn)
    -0.2, 0.68, -7, -0.6, -0.3, 3.6, -8%
Cc1ccc(NC(=O)c2oc(=O)c3ccccc3c2-c2ccccc2)c(C)c1
    0.2, 0.67, 4, -1.3, -0.9, 0.4, 0%
CCCN(CCC)C(=O)Cn1c(=O)c2ccccc2n2c(=S)sc(-c3ccccc3C)c12
    0.5, 0.76, 8, 0.2, 2.4, 6.3, ?
Cc1nnc(NC(=O)c2ccc(S(=O)(=O)N3CCCCC3)cc2)s1
    -0.2, 0.69, 3, -3.4, 0.0, 2.5, .
Cc1cc(CCN2CCC(=O)NC2=O)ccc1OC(C)C
    0.9, 0.64, 0, -4.1, 0.0, 4.6, 0%
COc1ccc(/C=C/C(=O)NCCc2ccc(S(N)(=O)=O)cc2)cc1
    0.0, 0.72, -3, -4.2, 2.1, 1.5, -6%
Cc1coc2cc3oc(=O)c(CCC(=O)NCc4ccccn4)c(C)c3cc12
    -0.4, 0.77, -8, -4.1, -0.7, -49, .
CN(Cc1cccc(F)c1)C(=O)CN1C(=O)NC2(CCc3ccccc32)C1=O (stereo not drawn)
    -0.4, 0.71, -4, 2.1, 2.2, 2.0, -3%
O=C(NNC(=O)c1ccccc1C(=O)O)c1cc2ccccc2o1
    -0.7, 0.71, 11, 2.1, 0.3, 0.0, 19%
Cc1ccc(CSCCNC(=O)c2ccc(C)cc2)cc1
    -0.6, 0.66, 6, 0.3, 1.8, 0.8, -5%
O=C(/C(=C/O)N=Nc1ccccc1)c1ccncc1
    -0.4, 0.78, 1, -13, -2.2, 12, 1%
CNC(=O)c1csc(-c2ccc(C)cc2)n1
    -4.1, 0.69, -9, -1.3, 2.1, 2.4, -8%
CC(C)(C)NC(=O)COC(=O)c1ccccc1Nc1ccc(SC(F)F)cc1
    -0.1, 0.69, -1, 0.7, -0.9, -28, 13%
Cc1ccc(C(c2nnnn2C2CCCC2)N2CCN(c3nc4ccccc4s3)CC2)cc1 (stereo not drawn)
    -0.6, 0.81, 6, -2.1, 0.2, 0.2, 2%
Cc1ccc(OCC(=O)NNC(=O)Cn2nnc(-c3ccccc3)n2)cc1
    -0.8, 0.65, -3, 4.2, 0.0, 3.8, -6%
Cn1c(SCc2cccc(Br)c2)nc2ccccc2c1=O
    -3.1, 0.7, 4, -0.4, -4.2, 4.1, .
O=C(CCC(=O)Nc1ccccc1Cl)NN=C1CCCC1
    2.1, 0.6, -3, -2.6, -1.4, 3.1, .
O=C(Nc1nnc(SCc2ccccc2)s1)c1cccs1
    -15, 0.73, -20, 0.1, 2.4, 3.6, -1%

3 compounds picked at random from the list so far:
Results follow in this order: A1 inh, E coli growth, Beta2AR agonist, LANA-H2B inh, HNF4A DNA FP, UCH37 inh, Vif TR-FRET
Cc1ccc(NC(=O)c2oc(=O)c3ccccc3c2-c2ccccc2)c(C)c1
    0.2, 0.67, 4, -1.3, -0.9, 0.4, 0%
Cc1ccc(OCC(=O)NNC(=O)Cn2nnc(-c3ccccc3)n2)cc1
    -0.8, 0.65, -3, 4.2, 0.0, 3.8, -6%
O=C(/C(=C/O)N=Nc1ccccc1)c1ccncc1
    -0.4, 0.78, 1, -13, -2.2, 12, 1%

More structures
Results follow in this order: A1 inh, E coli growth, Beta2AR agonist, LANA-H2B inh, HNF4A DNA FP, UCH37 inh, Vif TR-FRET
O=C1C2C3C=CC(CC3)C2C(=O)N1c1ccc([N+](=O)[O-])cc1 (stereo not drawn)
    -0.2, 0.66, -2, -2.9, 2.2, 2.1, .
COC(=O)CSC1=C(C#N)C(c2ccccc2OC)C(C(=O)OC)C(=O)N1 (stereo not drawn)
    1.5, 0.71, 10, -2.8, -3.3, 1.7, -3%
Cc1cc(NC(=O)c2ccco2)ncc1NC(=O)CCc1ccccc1
    1.2, 0.72, -2, -1.2, 0.7, 3.2, 0%
C=CCOc1ccc(C(c2c(C)n(C)n(-c3ccccc3)c2=O)c2c(C)n(C)n(-c3ccccc3)c2=O)cc1
    -0.3, 0.68, -14, 2.7, 3.7, 2.8, -6%
